Shh pathway inh: Hedgehog pathway signaling inhibitors, primary screen, luminescence, Shh-LIGHT2 cells, Gli-luciferase | Shh-LIGHT2 Gli-luciferase reporter, 30 h | inhibition, % (concentration not given with the values) | 22,000 compounds, 2.1% hits;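 active = replicate mean of 65% or more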;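 also: pathway switched on by Shh-conditioned medium diluted 1 in 25 in low serum; 100 nL library stock added to about 40 µL; 0% = median of neutral wells and 100% = positive control level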
MITF inhib: inhibitors of MITF, primary screen, MITF inhibitor project, cell-based, luminescence | TRPM1 promoter luciferase, 24 h | inhibition, % (no concentration beside the values) | 37,000 compounds, 0.28% hits;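 active = most replicates at 85% or more, or half of them and the mean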;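 also: human melanocyte line stably carrying TRPM1 promoter luciferase reporter; 0% = vehicle wells and 100% = a positive control; the first replicate is given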
PD-1 reversal: activators reversing PD-1 mediated T-cell inhibition, primary screen, luminescence, primary human CD4 T cells, PD-L1 beads | CellTiter-Glo 96 h | activation, % (test concentration not listed) | 29,000 tested, under 10 active;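 active = replicate mean of 50% or more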;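 also: 0% = median vehicle wells and 100% = positive control; 100 nL library stock added to about 50 µL; numbers are from one replicate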
YB-1 expression: inhibitors of YB-1 gene expression, primary screen, cell-based, fluorescence. U2OS, qRT-PCR YB-1 vs CDIP delta delta Cp, 16 h; hits give high values; zero = DMSO, each unit about twofold. delta delta Cp (YB-1 minus CDIP) (test concentration not listed). 30,000 compounds, 0.37% hits;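 active = delta delta Cp rounded down to an integer at or above 3, about 3 SD of DMSO wells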;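 also: higher means less YB-1 transcript or more CDIP transcript relative to DMSO; stock transfer was 100 nL into about 100 µL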
* hit, by the source's call; x = no result given; & = joins results of further samples. Only part of the results is shown; rates above refer to the full screens.

SMILES	Shh pathway inh	MITF inhib	PD-1 reversal	YB-1 expression
C[C@@H]1CN([C@H](C)CO)C(=O)Cc2cc(NC(=O)Nc3cccc4ccccc34)ccc2O[C@@H]1CN(C)Cc1ccccc1	40	15	-1.1	0.076
C[C@H](CO)N1C[C@H](C)[C@H](CN(C)C(=O)Nc2ccc(F)cc2)Oc2ccc(NC(=O)C3CC3)cc2C1=O	-2	-6	-0.8	0.19
Cc1noc(C)c1S(=O)(=O)Nc1ccc2c(c1)CC(=O)N([C@H](C)CO)C[C@H](C)[C@H](CN(C)C)O2	x	-3	x	0.033
C[C@H]1CN([C@@H](C)CO)C(=O)Cc2cc(NC(=O)Cc3ccccc3)ccc2O[C@H]1CN(C)C(=O)Nc1ccccc1	-11	5	0.4	-0.09
C[C@H](CO)N1C[C@H](C)[C@@H](CN(C)S(C)(=O)=O)Oc2ccc(NS(C)(=O)=O)cc2C1=O	-6	-4	0.2	-0.073
CS(=O)(=O)N(CC(=O)Nc1ccc(F)c(F)c1)c1ccccc1Cl	x	-9	0.7	x
C[C@H]1CN([C@@H](C)CO)C(=O)c2cccc(NS(=O)(=O)c3ccc(F)cc3)c2O[C@H]1CN(C)C(=O)Nc1ccc2c(c1)OCO2	-41	-10	x	-0.035
O=C(NCCNc1ccc(C(F)(F)F)cc1[N+](=O)[O-])c1ccc(F)cc1	x	0	-1.9	x
Cc1onc(-c2ccccc2Cl)c1NC(=O)Nc1cccc(C(F)(F)F)c1	36	7	-0.1	0.11
C[C@@H]1CN([C@H](C)CO)C(=O)c2cccc(NC(=O)NC3CCCCC3)c2O[C@H]1CN(C)Cc1ccc(Oc2ccccc2)cc1	-35	73	-4.3	0.45
C[C@@H]1CN([C@H](C)CO)C(=O)c2cc(NC(=O)c3ccncc3)ccc2O[C@H]1CN(C)C	10	1	1.4	-0.28
Cc1noc(C)c1NC(=O)N(C)C[C@@H]1Oc2ccc(NS(=O)(=O)c3ccc(Cl)cc3)cc2C(=O)N([C@H](C)CO)C[C@H]1C	x	-6	-0.9	0.062
C=C1CC[C@H]2[C@@](C)(CCC[C@@]2(C)C(=O)O)[C@@H]1CCC(C)CCO (stereo partly drawn)	2	-6	-0.5	-0.47
C[C@@H]1CN([C@@H](C)CO)C(=O)c2cc(NC(=O)C3CCCCC3)ccc2O[C@H]1CN(C)C(=O)Nc1ccc(F)cc1	-50	5	-0.1	0.2
COc1cc(OC)nc(/N=C/NO)n1	6	-12	0.8	-0.099
COc1ccc(NC(=O)N(C)C[C@@H]2Oc3c(NS(=O)(=O)c4cn(C)cn4)cccc3C(=O)N([C@@H](C)CO)C[C@@H]2C)cc1	24	-13	0.4	-0.37
Cc1noc(C)c1NC(=O)Nc1ccc2c(c1)CC(=O)N([C@H](C)CO)C[C@@H](C)[C@H](CN(C)S(=O)(=O)c1cccs1)O2	20	0	1.4	-0.08
C[C@@H]1CN([C@@H](C)CO)C(=O)c2cc(NC(=O)C3CC3)ccc2O[C@H]1CN(C)C(=O)NC1CCCCC1	-14	1	x	21*
C[C@@H]1CN([C@H](C)CO)C(=O)c2cccc(NC(=O)Nc3cccc4ccccc34)c2O[C@H]1CN(C)C(=O)Nc1ccc2c(c1)OCO2	28	0	-2.4	-0.21
COc1ccc(S(=O)(=O)Nc2ccc3c(c2)C(=O)N([C@@H](C)CO)C[C@@H](C)[C@@H](CN(C)S(=O)(=O)c2ccccc2)O3)cc1	0	-7	-0.9	0.11
CC(C)NC(=O)N(C)C[C@H]1Oc2ccc(NC(=O)Cn3cnnn3)cc2C(=O)N([C@@H](C)CO)C[C@H]1C	-28	-2	-0.1	0.34
CC(C)NC(=O)N(C)C[C@H]1Oc2ccc(NC(=O)Cc3cn(C)c4ccccc34)cc2CC(=O)N([C@@H](C)CO)C[C@@H]1C	-5	-3	1.8	0.26
C[C@H]1CN([C@@H](C)CO)C(=O)c2cccc(NS(=O)(=O)c3cccs3)c2O[C@H]1CN(C)S(=O)(=O)c1ccccc1	-31	-8	x	0.16
COc1ccc(OC)c(S(=O)(=O)N(C)CC(=O)N2CCCCC2)c1	x	-1	0.5	x
C[C@H]1CN([C@@H](C)CO)C(=O)c2cccc(N(C)C)c2O[C@H]1CN(C)S(=O)(=O)c1ccc(F)cc1	-23	5	-1.0	1.3
C=CCNC(=O)C1(O)c2ccccc2NC(=O)N1c1ccccc1 (stereo not drawn)	-17	-7	0.7	-0.11
C[C@H]1CN([C@@H](C)CO)C(=O)c2cc(NC(=O)CCN3CCOCC3)ccc2O[C@H]1CN(C)S(=O)(=O)c1ccc(F)cc1	22	-1	x	-0.02
C[C@H](CO)N1C[C@H](C)[C@@H](CN(C)CC2CCCCC2)Oc2c(NC(=O)Nc3ccc4c(c3)OCO4)cccc2C1=O	-92	-9	-2.9	-0.27
Cc1ccc(S(=O)(=O)Nc2cccc3c2O[C@H](CN(C)C(=O)Nc2c(C)noc2C)[C@@H](C)CN([C@@H](C)CO)C3=O)cc1	7	2	2.6	0.38
Cc1sc2nc(SCC(=O)NCC3CCCO3)n(-c3ccc(F)cc3)c(=O)c2c1C (stereo not drawn)	x	9	-2.0	x
C[C@@H]1CCCCO[C@@H](CN(C)C(=O)Cc2ccccc2)[C@@H](C)CN([C@H](C)CO)C(=O)c2cc(NC(=O)Nc3ccc(F)cc3)ccc2O1	x	30	x	-0.67
C[C@H]1CN([C@@H](C)CO)C(=O)c2cccc(NS(C)(=O)=O)c2O[C@@H]1CN(C)Cc1ccc(C(F)(F)F)cc1	13	-16	2.3	0.14
COc1ccc(NC(=O)N(C)C[C@@H]2Oc3ccc(NC(=O)C4CC4)cc3CC(=O)N([C@@H](C)CO)C[C@@H]2C)cc1	-18	-5	x	-0.084
CN(CC(=O)O)S(=O)(=O)c1cccc2cccc(Cl)c12	x	-1	1.4	x
C[C@H]1CN([C@@H](C)CO)C(=O)Cc2cc(NC(=O)NC3CCCCC3)ccc2O[C@H]1CN(C)CC1CCCCC1	-22	-4	0.9	-0.09
COc1ccc(S(=O)(=O)Nc2cccc3c2O[C@H](CN(C)Cc2ccc(C(=O)Nc4ccccc4N)cc2)[C@@H](C)CN([C@H](C)CO)C3=O)cc1	x	4	0.4	0.14
Cc1cc(=O)c2c(O)c3c(cc2o1)OC(C(C)(C)OC1OC(CO)C(O)C(O)C1O)C3 (stereo not drawn)	-37	-2	2.7	0.16
Cc1ccn2c(-c3nnco3)c(C)nc2c1	-22	7	0.6	-0.28
COc1cccc(NC(=O)CSc2nnc(-c3ccncc3)n2-c2ccc(Br)cc2)c1	x	-2	-2.0	x
Cc1cc(C)cc(OCC(=O)Nc2cccc(-c3nnc(-c4ccco4)o3)c2)c1	x	18	0.4	x
C[C@@H]1CN([C@H](C)CO)C(=O)c2cccc(NC(=O)C3CC3)c2O[C@@H]1CN(C)Cc1ccc(C(=O)O)cc1	x	9	x	-0.28
O=C1C(=O)N(CC2CCCO2)C(c2cccc(Oc3ccccc3)c2)C1C(=O)c1ccco1 (stereo not drawn)	x	-10	0.5	x
C[C@H](CO)N1C[C@H](C)[C@H](CN(C)Cc2ccc3c(c2)OCO3)Oc2ccc(NS(=O)(=O)c3ccc(Cl)cc3)cc2C1=O	x	4	-1.2	-0.59
C[C@@H]1CN([C@@H](C)CO)C(=O)c2cccc(NC(=O)Nc3ccccc3)c2O[C@H]1CN(C)Cc1ccc(Cl)c(Cl)c1	9	10	x	0.012
Cc1noc(C)c1NC(=O)Nc1ccc2c(c1)CC(=O)N([C@@H](C)CO)C[C@H](C)[C@H](CN(C)C(=O)Nc1ccc(C(F)(F)F)cc1)O2	-12	-24	x	-0.033
C[C@@H]1CN([C@H](C)CO)C(=O)Cc2cc(NC(=O)C3CC3)ccc2O[C@@H]1CN(C)CC1CC1	x	-1	1.2	-0.26
C[C@H](CO)N1C[C@H](C)[C@H](CN(C)C(=O)Nc2ccc(F)cc2)Oc2ccc(NS(=O)(=O)c3ccc(Cl)cc3)cc2CC1=O	-15	-1	-0.2	-0.0093
C[C@H](CO)N1C[C@H](C)[C@H](CN(C)Cc2ccc(Oc3ccccc3)cc2)Oc2c(NC(=O)c3nc4ccccc4s3)cccc2C1=O	-8	11	1.7	0.25
C[C@H]1CN([C@@H](C)CO)C(=O)c2cc(NC(=O)Nc3cccc4ccccc34)ccc2O[C@H]1CN(C)Cc1ccc2c(c1)OCO2	23	-1	-0.1	0.32
CC(C)S(=O)(=O)/C(C#N)=C/Nc1ncccn1	-13	-15	0.8	-0.23
C[C@@H]1CN([C@@H](C)CO)C(=O)c2cccc(NC(=O)C3CCCCC3)c2O[C@H]1CN(C)C(=O)Nc1ccccc1	8	-6	2.0	-0.82
Cc1cc(CC(=O)O)n(C)c1C(=O)c1ccc(Cl)cc1	-11&3	-4&5	x	0.068&-0.29
COc1ccc(S(=O)(=O)Nc2ccc3c(c2)CC(=O)N([C@H](C)CO)C[C@@H](C)[C@H](CN(C)C(=O)NC(C)C)O3)cc1	1	4	1.2	0.042
Cc1ccc(OCC(=O)NC(=S)Nc2cc(C(=O)O)ccc2C)cc1	x	-16	1.0	x
COc1ccc(S(=O)(=O)Nc2ccc3c(c2)CC(=O)N([C@H](C)CO)C[C@H](C)[C@H](CN(C)CC2CC2)O3)cc1	-7	-4	x	-0.089
CS(=O)(=O)N(CC(=O)Nc1ccccc1Sc1ccccc1)c1ccc(Cl)c(Cl)c1	x	23	3.5	x
Cc1nc(-c2ccccc2)sc1C(=O)C1C(=O)C(=O)N(CCN(C)C)C1c1ccc(Cl)cc1 (stereo not drawn)	x	-9	1.4	x
C[C@@H]1CCCCO[C@@H](CN(C)CC2CC2)[C@@H](C)CN([C@H](C)CO)C(=O)c2cc(NC(=O)Nc3cccc4ccccc34)ccc2O1	1	-6	0.6	-0.088
CN(c1cccc2cccnc12)S(=O)(=O)c1ccccc1	-21	-3	-1.3	-0.31
C[C@H]1CN([C@@H](C)CO)C(=O)Cc2cc(NC(=O)Nc3ccccc3)ccc2O[C@H]1CN(C)Cc1ccc2c(c1)OCO2	x	-28	-0.2	-0.59

Next records follow:
SMILES	Shh pathway inh	MITF inhib	PD-1 reversal	YB-1 expression
COc1ccc(CN2C(=O)C(O)(CC(=O)c3ccc4c(c3)CCCC4)c3ccccc32)cc1OC (stereo not drawn)	x	0	-2.1	x
C[C@@H]1CN([C@H](C)CO)C(=O)c2cc(NC(=O)CCCN(C)C)ccc2O[C@H]1CN(C)S(=O)(=O)c1ccccc1	-33	-4	x	0.29
C[C@H]1CN([C@@H](C)CO)C(=O)c2cc(NS(=O)(=O)c3ccccc3)ccc2O[C@@H]1CN(C)S(=O)(=O)c1ccc(F)cc1	x	4	-0.6	0.36
CC(C)c1ccc(NC(=O)c2coc(=O)c3ccccc23)cc1	-72	3	-0.2	0.11
C[C@@H]1CN([C@H](C)CO)C(=O)c2cc(NS(C)(=O)=O)ccc2O[C@H]1CN(C)Cc1ccc(Cl)c(Cl)c1	-17	-3	-0.1	-0.054
CC(C)NC(=O)N(C)C[C@H]1Oc2ccc(NC(=O)CCC(F)(F)F)cc2CC(=O)N([C@H](C)CO)C[C@H]1C	10	-8	-0.9	0.0047

Single records, as listed above. Screens in order: Shh pathway inh, MITF inhib, PD-1 reversal, YB-1 expression
CC(C)c1ccc(NC(=O)c2coc(=O)c3ccccc23)cc1 as listed: -72, 3, -0.2, 0.11
CC(C)NC(=O)N(C)C[C@H]1Oc2ccc(NC(=O)CCC(F)(F)F)cc2CC(=O)N([C@H](C)CO)C[C@H]1C as listed: 10, -8, -0.9, 0.0047
COc1ccc(CN2C(=O)C(O)(CC(=O)c3ccc4c(c3)CCCC4)c3ccccc32)cc1OC (stereo not drawn) as listed: x, 0, -2.1, x
C[C@H]1CN([C@@H](C)CO)C(=O)c2cc(NS(=O)(=O)c3ccccc3)ccc2O[C@@H]1CN(C)S(=O)(=O)c1ccc(F)cc1 as listed: x, 4, -0.6, 0.36
C[C@@H]1CN([C@H](C)CO)C(=O)c2cc(NS(C)(=O)=O)ccc2O[C@H]1CN(C)Cc1ccc(Cl)c(Cl)c1 as listed: -17, -3, -0.1, -0.054
